FGF22 binding: binders of human FGF22 protein, primary screen, FGF22 synaptogenesis inhibitor project, biophysical, thermal shift, single point | Fibroblast growth factor 22 (Homo sapiens), Q9HCT0 | recombinant FGF22 thermal shift, SYPRO orange fluorescence; percent of sucrose octasulfate shift, DMSO zero | calls only at 9.99 µM | 340,000 tested, 1.5% active | AID 651658, 2012;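 active = melting point raised past a set limit in the mean and every replicate; three in four hits are not shown here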
Target sequence (Q9HCT0 whole entry, looked up): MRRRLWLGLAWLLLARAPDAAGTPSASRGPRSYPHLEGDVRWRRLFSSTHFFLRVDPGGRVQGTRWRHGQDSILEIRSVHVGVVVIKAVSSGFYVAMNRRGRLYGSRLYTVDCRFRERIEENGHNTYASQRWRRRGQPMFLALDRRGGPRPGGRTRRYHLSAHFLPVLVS
Calls only; i = inactive; + = active, no number. These rows are one share of the data; count on the stated rates, not on these rows.

entry	Compound	FGF22 binding
1	C[C@H]1CN([C@@H](C)CO)C(=O)c2cc(-c3ccc(F)cc3)cnc2O[C@@H]1CN(C)C(=O)Nc1ccccc1F	i
2	C/C=C/c1ccc([C@@H]2[C@H](C#N)N(C(=O)c3cccnc3)[C@H]2CO)cc1	i
3	COc1ccc(C#Cc2ccc([C@@H]3[C@@H](CO)N4C(=O)CN(C(=O)C5CCOCC5)C[C@H]34)cc2)cc1	i
4	C[C@H](CO)N1C[C@H](C)[C@H](CN(C)S(C)(=O)=O)OCCCC[C@H](C)Oc2ccc(NC(=O)NC3CCCCC3)cc2C1=O	i
5	C[C@@H]1CCCCO[C@H](CN(C)C(=O)Nc2ccc(F)cc2)[C@@H](C)CN([C@@H](C)CO)C(=O)c2cc(NC(=O)CCCN(C)C)ccc2O1	i
6	CC=Cc1ccc2n(c1=O)C[C@@H]1[C@@H](CO)[C@H](C(=O)NCC3CC3)N(CCC(F)(F)F)[C@H]21 (mixture of isomers)	i
7	COC(=O)C[C@H]1CC[C@H]2[C@@H](COC[C@@H](O)CN2C(=O)Nc2ccccc2OC)O1	i
8	C[C@H](NC(=O)C[C@H]1C[C@@H]2c3cc(NC(=O)Nc4ccc(C(F)(F)F)cc4)ccc3O[C@@H]2[C@H](CO)O1)c1ccccc1	i
9	Cc1ccccc1S(=O)(=O)NCC[C@@H]1CC[C@@H](NC(=O)Nc2cccc(F)c2)[C@H](CO)O1	i
10	COC(=O)N1C[C@H](OCCCOCc2ccccc2)[C@H]2C[C@@H]1c1ccccc1O2	i
11	COc1cccc(C(=O)Nc2ccc3c(c2)OC[C@@H](C)N(CCc2ccccc2)C[C@@H](C)[C@H](OC)CN(C)C3=O)c1	i
12	C[C@@H]1CN([C@H](C)CO)C(=O)c2cccc(NS(=O)(=O)c3ccccc3)c2O[C@H]1CN(C)S(=O)(=O)c1ccc(Cl)cc1	i
13	C[C@H]1CN([C@@H](C)CO)C(=O)c2cc(NC(=O)CCCCCC(=O)Nc3ccccc3N)ccc2O[C@H]1CN(C)Cc1ccc(Cl)c(Cl)c1	i
14	C[C@@H]1CN([C@@H](C)CO)C(=O)Cc2cc(NC(=O)CCN3CCOCC3)ccc2O[C@@H]1CN(C)S(=O)(=O)c1cn(C)cn1	i
15	COC(=O)C[C@H]1CC[C@H]2[C@H](COc3ccc(NC(=O)Nc4ccc(Cl)cc4)cc3C(=O)N2C)O1	i
16	COc1ccccc1C(=O)N1CCC2CCNC2C1 (stereo not drawn)	i
17	Cc1noc(C)c1NC(=O)N(C)C[C@H]1OCCCC[C@H](C)Oc2ccc(NC(=O)c3ccncc3)cc2C(=O)N([C@H](C)CO)C[C@@H]1C	i
18	C[C@H]1CN([C@@H](C)CO)C(=O)c2cccc(NC(=O)C3CCCCC3)c2O[C@H]1CN(C)C(=O)Nc1ccc(F)cc1	i
19	C[C@@H]1CCCCO[C@H](CN(C)CC2CCCCC2)[C@H](C)CN([C@H](C)CO)C(=O)c2cc(NS(=O)(=O)c3cn(C)cn3)ccc2O1	i
20	COC(=O)C[C@@H]1C=C[C@@H](NS(=O)(=O)c2ccc(OC)cc2)[C@H](CO)O1	i
21	N#C[C@H]1[C@H](c2ccc(C#Cc3cccc(F)c3)cc2)[C@@H](CO)N1C(=O)C1CC1	i
22	COc1ccc(S(=O)(=O)N2CCCc3nc(-c4ccc(F)cc4)ccc32)cc1	i
23	CCNC(=O)[C@@H]1[C@@H](CO)[C@@H]2Cn3c(ccc(-c4ccc(F)cc4)c3=O)[C@H]1N2C(=O)c1ccccn1	i
24	CO[C@@H]1CN(C)C(=O)c2ccc(NC(=O)Nc3cccc(F)c3)cc2OC[C@H](C)N(C)C[C@@H]1C	i
25	O=C(Nc1ccccc1F)N[C@@H]1CC[C@@H](CCNS(=O)(=O)c2ccc(F)cc2)O[C@H]1CO	i
26	C[C@@H]1CN([C@@H](C)CO)C(=O)c2cccc(NS(=O)(=O)c3cn(C)cn3)c2O[C@H]1CN(C)S(=O)(=O)c1cn(C)cn1	i
27	COc1ccccc1S(=O)(=O)N(C)C[C@H]1Oc2cc(/C=C/c3ccccc3)ccc2S(=O)(=O)N([C@H](C)CO)C[C@H]1C	i
28	O=C(NCc1ccncn1)[C@H]1[C@H](CO)[C@H]2Cn3c(ccc(-c4ccc(F)cc4)c3=O)[C@H]2N1CC1CC1	i
29	O=C(Nc1cccc(F)c1)N1CCCCN2[C@H](C1)[C@H](c1ccc(C#Cc3cccnc3)cc1)[C@@H]2CO	i
30	COc1ccccc1-c1cnc2c(c1)C(=O)N([C@H](C)CO)C[C@@H](C)[C@@H](CN(C)Cc1ccc(C(=O)O)cc1)O2	i
31	Cc1noc(C)c1NC(=O)N(C)C[C@H]1Oc2ccc(NC(=O)NC3CCCCC3)cc2CC(=O)N([C@@H](C)CO)C[C@H]1C	i
32	Cc1ccc(S(=O)(=O)N(C)C[C@H]2Oc3ccc(NC(=O)Cn4cnnn4)cc3CC(=O)N([C@@H](C)CO)C[C@@H]2C)cc1	i
33	CC=Cc1ccc2n(c1=O)C[C@H]1[C@H](CO)[C@@H](C(=O)NCCc3cn(C)cn3)N(C(=O)C3CCC3)[C@@H]21 (mixture of isomers)	i
34	COc1ccc(NC(=O)N(C)[C@H]2C[C@H]3c4[nH]c5c(-c6ccccc6)cccc5c4CCN3C(=O)[C@H]2[C@H](C)O)cc1	i
35	COc1ccc(S(=O)(=O)Nc2ccc3c(c2)C(=O)N([C@@H](C)CO)C[C@H](C)[C@H](CN(C)C(=O)Nc2ccccc2)O3)cc1	i
36	C[C@@H]1CN([C@@H](C)CO)S(=O)(=O)c2ccc(C3=CCCC3)cc2O[C@@H]1CN(C)Cc1ccccn1	i
37	O=C(C[C@H]1CC[C@@H]2NC[C@H](O)COC[C@H]2O1)NCCc1ccccc1	i
38	C[C@H](CO)N1C[C@H](C)[C@@H](CN(C)Cc2ccc(F)cc2)Oc2cc(C#CC(C)(C)O)ccc2S1(=O)=O	i
39	COc1ccccc1-c1ccc2c(c1)O[C@@H](CN(C)C(=O)c1cccnc1)[C@H](C)CN([C@H](C)CO)S2(=O)=O	i
40	C[C@@H]1CN([C@@H](C)CO)C(=O)Cc2cc(NS(=O)(=O)c3cn(C)cn3)ccc2O[C@H]1CN(C)S(=O)(=O)c1ccc(F)cc1	i
41	C[C@H](CO)N1C[C@H](C)[C@@H](CN(C)S(=O)(=O)c2ccccc2)Oc2ccc(NC(=O)Nc3ccc4c(c3)OCO4)cc2CC1=O	i
42	C[C@H]1CN([C@@H](C)CO)C(=O)c2cc(NC(=O)C3CCCCC3)ccc2O[C@@H]1CN(C)Cc1ccccc1	i
43	CCCCCn1c(C)c(CC(=O)Nc2ccc(Oc3cccnc3)c(C)c2)c2ccccc21	i
44	COc1cccc(-c2ccc([C@H]3[C@@H](CO)N4C(=O)CN(C(=O)c5cccnc5)C[C@H]34)cc2)c1	i
45	Cc1noc(C)c1NC(=O)N(C)C[C@H]1Oc2c(NS(=O)(=O)c3ccc(F)cc3)cccc2C(=O)N([C@@H](C)CO)C[C@@H]1C	i
46	CO[C@H]1CC[C@@H]2CCOc3ccc(C#N)cc3C(=O)N(C)CCCC(=O)N(C)C[C@@H]1O2	i
47	C[C@@H]1CN([C@H](C)CO)C(=O)Cc2cc(NC(=O)Cc3ccccc3)ccc2O[C@@H]1CN(C)C(=O)Nc1ccccc1	i
48	O=S1(=O)N[C@H](Cc2ccccc2)COc2cccc(NCCO)c21	i
49	Cc1ccc(S(=O)(=O)N2C[C@H](O)COC[C@H]3O[C@H](CC(=O)NCc4ccc(Cl)c(Cl)c4)CC[C@@H]32)cc1	+
50	COc1ccc(NC(=O)N2CCCCN3[C@@H](CO)[C@@H](c4ccc(C5=CCCC5)cc4)[C@@H]3C2)cc1	i
51	COc1cccc(NC(=O)N(C)C[C@H]2Oc3cc(C#Cc4ccccc4)ccc3S(=O)(=O)N([C@@H](C)CO)C[C@H]2C)c1	+
52	Cc1noc(C)c1NC(=O)Nc1ccc2c(c1)C(=O)N([C@@H](C)CO)C[C@H](C)[C@@H](CN(C)Cc1ccncc1)OCCCC[C@@H](C)O2	i
53	Cc1noc(C)c1S(=O)(=O)N(C)C[C@@H]1Oc2ccc(NC(=O)Cc3ccccc3)cc2CC(=O)N([C@@H](C)CO)C[C@@H]1C	i
54	COc1cccc(S(=O)(=O)N2CC[C@@H]3[C@H]2c2cc(C#Cc4cccnc4)ccc2N[C@@H]3CO)c1	i
55	Cc1noc(C)c1S(=O)(=O)N(C)C[C@@H]1OCCCC[C@H](C)Oc2ccc(NS(C)(=O)=O)cc2C(=O)N([C@@H](C)CO)C[C@H]1C	i
56	O=C(C[C@@H]1C[C@@H]2c3cc(NC(=O)NC4CCCC4)ccc3O[C@@H]2[C@@H](CO)O1)NCc1ccc2c(c1)OCO2	i
57	C[C@H](CO)N1C[C@H](C)[C@@H](CN(C)S(C)(=O)=O)Oc2ccc(NC(=O)CCCCCC(=O)Nc3ccccc3N)cc2C1=O	i
58	COc1cccc(S(=O)(=O)Nc2ccc3c(c2)OC[C@@H](C)NC[C@H](C)[C@H](OC)CN(C)C3=O)c1	i
59	O=C(Nc1ccc(F)cc1)N1CCCCN2[C@H](CO)[C@H](c3ccc(C#Cc4ccccn4)cc3)[C@H]2C1	i
60	C[C@@H]1CN([C@H](C)CO)C(=O)Cc2cc(NC(=O)C3CC3)ccc2O[C@@H]1CN(C)S(=O)(=O)c1ccccc1	i

Part of the list above, with each value named.
60	C[C@@H]1CN([C@H](C)CO)C(=O)Cc2cc(NC(=O)C3CC3)ccc2O[C@@H]1CN(C)S(=O)(=O)c1ccccc1
  FGF22 binding = i

41	C[C@H](CO)N1C[C@H](C)[C@@H](CN(C)S(=O)(=O)c2ccccc2)Oc2ccc(NC(=O)Nc3ccc4c(c3)OCO4)cc2CC1=O
  FGF22 binding = i

Continuation.
entry	Compound	FGF22 binding
61	C[C@H]1CN([C@@H](C)CO)C(=O)c2cc(C#CCc3ccccc3)cnc2O[C@H]1CN(C)Cc1ccc(C(=O)O)cc1	i
62	C[C@@H]1CN([C@@H](C)CO)C(=O)Cc2cc(NS(=O)(=O)c3cn(C)cn3)ccc2O[C@H]1CN(C)Cc1ccc(-c2ccccc2)cc1	i
63	CC(C)CC#Cc1cnc2c(c1)C(=O)N([C@H](C)CO)C[C@H](C)[C@H](CN(C)Cc1cccc(C(=O)O)c1)O2	i
64	CC(C)c1cn(CC[C@@H]2CC[C@H](NC(=O)C3CCC3)[C@@H](CO)O2)nn1	i
65	O=C1N[C@@H](c2ccccc2)COCc2cn(nn2)CC[C@@H]1Cc1ccccc1	i
66	C[C@@H]1CCCCO[C@H](CN(C)Cc2ccc(Cl)c(Cl)c2)[C@@H](C)CN([C@@H](C)CO)C(=O)c2cc(NC(=O)C3CCCCC3)ccc2O1	i
67	COc1ccc(-c2cn(CC[C@H]3CC[C@@H](NC(=O)CCN4CCCCC4)[C@H](CO)O3)nn2)cc1	i
68	CC(C)NC(=O)N(C)C[C@H]1OCCCC[C@@H](C)Oc2ccc(NC(=O)NC3CCCCC3)cc2C(=O)N([C@@H](C)CO)C[C@H]1C	i
69	CCC(=O)N1CC[C@@H]2[C@@H](CO)N(C)c3ccc(-c4ccccc4)cc3[C@@H]21	i
70	COc1ccc(NC(=O)N(C)C[C@H]2Oc3c(NC(=O)Nc4c(C)noc4C)cccc3C(=O)N([C@@H](C)CO)C[C@H]2C)cc1	i
71	C[C@H]1CN([C@@H](C)CO)C(=O)c2cccc(NC(=O)c3nc4ccccc4s3)c2O[C@@H]1CN(C)Cc1ccc(Oc2ccccc2)cc1	i
72	Cc1ccc(-c2ccc([C@@H]3[C@H](CO)N4CCCCN(C(=O)c5ccncc5)C[C@@H]34)cc2)cc1	i
73	COc1ccc(CN(C)C[C@H]2Oc3ccc(NS(=O)(=O)c4ccc(C)cc4)cc3C(=O)N([C@H](C)CO)C[C@@H]2C)cc1	i
74	CNC[C@H]1Oc2cc(C#Cc3ccc(F)cc3)ccc2S(=O)(=O)N([C@@H](C)CO)C[C@@H]1C	i
75	C[C@@H](NC(=O)C[C@@H]1CC[C@@H](NC(=O)C2CCOCC2)[C@H](CO)O1)c1ccccc1	i
76	COc1ccc(CN(C)C[C@H]2OCCCC[C@H](C)Oc3ccc(NC(=O)Nc4cccc5ccccc45)cc3C(=O)N([C@H](C)CO)C[C@@H]2C)cc1	i
77	Cc1ccccc1S(=O)(=O)N1C[C@H](O)COC[C@@H]2O[C@@H](CC(=O)N3CCN(C)CC3)CC[C@H]21	i
78	C[C@@H]1CCCCO[C@H](CN(C)Cc2ccc3c(c2)OCO3)[C@@H](C)CN([C@@H](C)CO)C(=O)c2cc(NC(=O)C3CCCCC3)ccc2O1	+
79	C[C@@H]1CCCCO[C@@H](CN(C)CC2CCCCC2)[C@@H](C)CN([C@@H](C)CO)C(=O)c2cc(NC(=O)NC3CCCCC3)ccc2O1	i
80	C[C@@H]1CCCCO[C@H](CN(C)S(=O)(=O)c2ccccc2)[C@H](C)CN([C@H](C)CO)C(=O)c2cc(NS(C)(=O)=O)ccc2O1	i
81	CO[C@@H]1CN(C)C(=O)c2cc(NC(=O)c3ccccc3)ccc2OC[C@@H](C)NC[C@@H]1C	i

Three entries already listed, arranged by count of non-hydrogen atoms, high to low:
entry	Compound	FGF22 binding
78	C[C@@H]1CCCCO[C@H](CN(C)Cc2ccc3c(c2)OCO3)[C@@H](C)CN([C@@H](C)CO)C(=O)c2cc(NC(=O)C3CCCCC3)ccc2O1	+
72	Cc1ccc(-c2ccc([C@@H]3[C@H](CO)N4CCCCN(C(=O)c5ccncc5)C[C@@H]34)cc2)cc1	i
65	O=C1N[C@@H](c2ccccc2)COCc2cn(nn2)CC[C@@H]1Cc1ccccc1	i

Exported with each value named: two of the compounds above.
(79) C[C@@H]1CCCCO[C@@H](CN(C)CC2CCCCC2)[C@@H](C)CN([C@@H](C)CO)C(=O)c2cc(NC(=O)NC3CCCCC3)ccc2O1
- FGF22 binding: i
(75) C[C@@H](NC(=O)C[C@@H]1CC[C@@H](NC(=O)C2CCOCC2)[C@H](CO)O1)c1ccccc1
- FGF22 binding: i

Source: PubChem (Broad Institute)
